Mtb growth = Confirmatory growth inhibition assay against Mycobacterium tuberculosis H37Rv, potency (AID 1949); 1.6% of 100,000 active; most inactive calls were filed without a number and no value below 0 was filed; inhibition, % at 10 µg/mL; hits with a dose series show IC50 in µg/mL;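 active = confirmed in a dose series; inconclusive = about 50% or more but not retested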;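 note: bacteria grown 7 days with compound before Alamar blue readout; 0% = untreated bacteria and 100% = reference antibiotic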
The depositor's hits bear a star; i = inactive; u = inconclusive. Only part of the results is shown. The share of hits here may be higher or lower than overall.

The first 4 entries, to show the layout:
SMILES	Mtb growth
CCN(CC)c1ccc(NC(=O)CSc2nc3ccccc3c(=O)[nH]2)cc1	i
COC(=O)CSc1nnnn1-c1ccc(C(=O)OC)cc1	i
Fc1cccc(Cl)c1C=NN1CCN(C2c3ccccc3-c3ccccc32)CC1	5%
Cc1cccc(C(O)(C(=O)NNC(=O)CN2CCN(C)CC2)c2cccc(C)c2)c1	i

Main list (from the top)
SMILES	Mtb growth
CCN(CC)c1ccc(NC(=O)CSc2nc3ccccc3c(=O)[nH]2)cc1	i
COC(=O)CSc1nnnn1-c1ccc(C(=O)OC)cc1	i
Fc1cccc(Cl)c1C=NN1CCN(C2c3ccccc3-c3ccccc32)CC1	5%
Cc1cccc(C(O)(C(=O)NNC(=O)CN2CCN(C)CC2)c2cccc(C)c2)c1	i
CC1CC(C)CN(C(=O)CCCCC(=O)N2CC(C)CC(C)C2)C1 (stereo unspecified)	i
Nn1c(SCc2ccccc2F)nncc1=O	i
COc1cccc(NC(=O)NCCCN(C)C)c1	i
CCc1ccc(CN2CCN(C3CCN(Cc4ccccc4)CC3)CC2)cc1	i
c1ccc(Cc2nc3ccccc3n2CCCCOc2ccccc2)cc1	i
CCOc1ccc(NCCC(=O)c2cccs2)cc1	0.86µg/mL*
CCOc1ccc(S(=O)(=O)N(CC(=O)Nc2ccccc2C(C)C)c2ccc(C)cc2)cc1	10%
COC(=O)CNc1cccc(C(F)(F)F)c1	i
O=C(NC(=S)Nc1ccc2c(c1)COC2=O)c1cccs1	i
CCN(Cc1ccncc1)C(=S)Nc1ccc(OC)cc1	i
CN(C)c1ccc(NC(=O)c2cccc(Cl)c2Cl)cc1	i
CCOC(=O)C1=C(C)OC(N)=C(C#N)C12C(=O)N1c3c(cc(OCC)cc32)C(C)=CC1(C)C (stereo unspecified)	i
CC(C)c1ccc(S(=O)(=O)Nc2ccc(O)c(-c3c(O)ccc4ccccc34)c2)cc1	0%
O=C(Nc1ccc(N2CCCCC2)c(C(=O)O)c1)c1ccco1	i
COc1ccc(-n2cnc3cc(NS(=O)(=O)c4ccccc4)ccc32)cc1	i
COc1ccccc1CNC(=O)c1cccc(C)c1	i
O=S(=O)(Cc1ccccc1Cl)N1CCCc2ccccc21	3%
Cc1ccc(SC(C)C(=O)Nc2ccc(N(C)C)cc2)cc1 (stereo unspecified)	i
O=C(CN1CCOCC1)Nc1ccccc1Cl	i
Cc1cc(Br)ccc1N1CC(C(=O)O)CC1=O (stereo unspecified)	i

Exported as labelled records: entries from further up
> CC(C)c1ccc(S(=O)(=O)Nc2ccc(O)c(-c3c(O)ccc4ccccc34)c2)cc1
- Mtb growth = 0%
> O=C(Nc1ccc(N2CCCCC2)c(C(=O)O)c1)c1ccco1
- Mtb growth = i

The results go on:
SMILES	Mtb growth
COC(=O)COc1c(Br)cc(C2C3=C(CCCC3=O)NC3=C2C(=O)CCC3)cc1OC	i
Cc1c(OC(=O)c2ccccc2F)ccc2c(-c3ccccc3)cc(=O)oc12	i
O=C(Nc1ccccc1C(=O)N1CCCCCC1)c1ccc(Cl)cc1Cl	i
Cc1c(C(=O)Nc2ccncc2)oc2c1C(=O)CC(C)(C)C2	i
O=C(CSc1nnc(-c2ccco2)c(-c2ccco2)n1)Nc1ccccc1[N+](=O)[O-]	i
O=C(Nc1nnc(C2CC2)s1)c1csc2ccccc12	i
Clc1ccccc1CSC1=NCCCN1	i
CN(C)CCOc1ccccc1I	i
CCOC(=O)c1c(C)nc2ccc(OC(F)(F)F)cc2c1-c1ccccc1	4%
COc1ccc(NC(=O)Cc2cccs2)cc1OC	i
Cc1cc(C)cc(C(=O)Nc2ccc(N(C)C)cc2)c1	i
Cc1cnc(NC(=O)c2ccc(Cl)cc2Cl)s1	i
Cc1ccccc1C(=O)Nc1sc2c(c1C(=O)N1CCCC1)CCCC2	i
CCCNC(=O)Nc1ccc2c(c1)nnn2C	i
Cc1ccc(C(=O)Nc2ccccc2C(=O)NC(C(=O)NC(C)(C)C)C(C)C)cc1 (stereo unspecified)	i
CCCCn1nnc(NC(=O)CCC)n1	i
CCOc1ccc(C(=O)CCC(=O)Nc2ccc(C)c(Cl)c2)cc1	10%
N#Cc1ccc(Sc2nc3ccccc3o2)c([N+](=O)[O-])c1	i
CN1CCN(c2nc3c(c(=O)[nH]2)CCCC3)CC1	i
COC(=O)C1CCN(C(=O)Nc2ccc(OC)cc2)CC1	i
O=c1ccnc(SCc2c(Cl)ccc(Cl)c2Cl)[nH]1	i
CCCN1CCC(NC(=S)Nc2cccc(C(C)=O)c2)CC1	i
CCCCOc1ccc(C(=O)N2CCN(c3ccc(Cl)cc3)CC2)cc1	i
Cc1ccc2[nH]c(C)c(CCC(=O)O)c(=O)c2c1	i
CCc1ccc(NC(=O)c2ccc([N+](=O)[O-])cc2)cc1	i
Cc1ccc(NC(=O)CSc2nnc3n(CCc4ccccc4)c(=O)c4c5c(sc4n23)COC(C(C)C)C5)cc1 (stereo unspecified)	11%
O=C(NCCCCc1ccccc1)C(=O)NCc1ccc2c(c1)OCO2	i
CC1=CCC(C(=O)O)C(C(=O)Nc2ccc(OC(F)(F)F)cc2)C1 (stereo unspecified)	i
CCOc1ccc(-n2c(-c3ccccn3)nc3ccccc3c2=O)cc1	7%
O=C(CCNc1ccc(Cl)c(C(F)(F)F)c1)c1cccs1	3.2µg/mL*
COC(=O)c1ccc(/C=N/NC(=O)c2cc(C34CC5CC(CC(C5)C3)C4)[nH]n2)cc1	i
CC(CCc1ccccc1)NC(=O)c1cccnc1 (stereo unspecified)	i
CC1CCc2c(sc3nc(Cc4ccccc4)[nH]c(=O)c23)C1 (stereo unspecified)	i
CN(C)CCOCCOc1ccc(Br)cc1Cl	i
COc1ccc([N+](=O)[O-])cc1COc1cc2oc(=O)cc(-c3ccccc3)c2cc1Cl	i
COc1ccccc1NC(=O)CN(c1ccccc1OC)S(C)(=O)=O	i
Cc1csc(-c2cc3ccc(O)c(CN4CCN(CCO)CC4)c3oc2=O)n1	i
CCOc1cc(Cl)c(S(=O)(=O)n2ccnc2)cc1Cl	i
O=C(Cc1ccc(Cl)cc1)Nc1cc(C(=O)O)cc(C(=O)O)c1	i
COC(=O)c1c(NC(=O)C23CCC(C)(C(=O)O2)C3(C)C)sc2c1CCCC2 (stereo unspecified)	i
COc1ccc(Cl)cc1C(=O)Nc1ccc(NC(=O)c2cc(Cl)ccc2OC)cc1	i
CCOC(=O)C(CC)n1cnc2sc(C)c(C)c2c1=O (stereo unspecified)	i
O=C(Nc1sc2c(c1C(=O)NC1CC1)CCCCCC2)c1ccco1	i
CC1=C(C#N)C(NC(=O)c2ccco2)(C(F)(F)F)C(=O)N1 (stereo unspecified)	i
CC(=O)N1CCN(C(=S)c2ccc(-c3cc(Cl)ccc3Cl)o2)CC1	i
CC1=CC(C)(C)N(C(=O)C(C)N2C(=O)c3ccccc3C2=O)c2c(C)cc(C)cc21 (stereo unspecified)	i
CCOC(=O)c1ccc(NS(=O)(=O)c2ccc(OC)c(C)c2)cc1	i
O=S(=O)(Nc1ccc(C(F)(F)F)cc1)c1ccccc1	i
CCc1ccc2[nH]c(C)c(CN(C)C)c(=O)c2c1	i
CCOC(=O)c1cc2c(=O)n3ccccc3nc2n(Cc2ccccc2)c1=NC(=O)c1cccs1	5%
COc1ccc(-c2cc(C(=O)NC(C)c3ccccc3)c3ccccc3n2)c(OC)c1 (stereo unspecified)	u
Cc1ccccc1N1C(=O)CC(c2cn(C)c3ccccc23)C1=O (stereo unspecified)	i
O=C1c2cccc3cccc(c23)C(=O)N1CC1CCN(S(=O)(=O)c2ccccc2)CC1	i
CCn1c(SCC(=O)Nc2nccs2)nnc1C(C)NC(=O)c1ccccc1 (stereo unspecified)	2%
CCc1cc(/C(O)=C/c2nc3ccccc3n2C)c(O)cc1OC(=O)C(C)(C)C	i
CC(C)NS(=O)(=O)c1ccc(OCC(=O)Nc2cccc3ccccc23)cc1	i
COc1ccc(C2CC(c3ccc4ccccc4c3OC(C)=O)=NN2C(=O)c2ccccc2)cc1OC (stereo unspecified)	3%
CCN(CC)S(=O)(=O)c1ccc(NC(=O)c2ccccc2Br)cc1	i
COc1ccc(N2C(=O)N(c3ccc(Br)cc3)C3CS(=O)(=O)CC32)cc1 (stereo unspecified)	i
CC1CCCCN1S(=O)(=O)c1ccc(I)cc1 (stereo unspecified)	i

Six compounds drawn at random from those above, as already listed:
SMILES	Mtb growth
Cc1ccc(NC(=O)CSc2nnc3n(CCc4ccccc4)c(=O)c4c5c(sc4n23)COC(C(C)C)C5)cc1 (stereo unspecified)	11%
CCN(Cc1ccncc1)C(=S)Nc1ccc(OC)cc1	i
COc1ccc([N+](=O)[O-])cc1COc1cc2oc(=O)cc(-c3ccccc3)c2cc1Cl	i
CCc1ccc2[nH]c(C)c(CN(C)C)c(=O)c2c1	i
O=C(NC(=S)Nc1ccc2c(c1)COC2=O)c1cccs1	i
CN(C)CCOCCOc1ccc(Br)cc1Cl	i

Other entries:
SMILES	Mtb growth
COc1ccc(C2=NN(C(C)=O)C(c3ccc(OC)c(OC)c3)C2)c(OC(=O)c2ccccc2)c1 (stereo unspecified)	i
Cc1cc(C)n2c(Nc3ccccc3)nnc2n1	0%
CCC(=O)N1CCN(c2ccc([N+](=O)[O-])c(NCc3ccccc3)c2)CC1	i
Cc1c(Cl)cccc1NC(=O)CN(c1ccc(I)cc1)S(C)(=O)=O	i
O=C(Nc1ccc(Cc2ccncc2)cc1)c1cccc(-c2cc3ccccc3oc2=O)c1	i
CCC(C)NC(=S)Nc1ccccc1OC (stereo unspecified)	i
COc1ccc(F)cc1S(=O)(=O)NC1CCCCCC1	i
CCN(CC)C(=O)c1ccc(NC(=O)c2cccc(I)c2)cc1	i
COc1ccc(CCC(=O)Nc2cccnc2)cc1	i
CS(=O)(=O)N(CC(=O)NCc1ccncc1)c1cccc(F)c1	i
COc1ccc(NC(=O)CN(Cc2ccccc2)S(C)(=O)=O)cc1	i
CCn1c(-c2cccc(Br)c2)n[nH]c1=S	i
O=[N+]([O-])c1ccn(Cc2ccccc2)n1	i
COc1cccc2cc(C(=O)N3CCN(Cc4ccccc4)CC3)c(=O)oc12	6%
CCOC(=O)C(C)Sc1nc2ccc(I)cc2c(=O)n1-c1ccccc1C (stereo unspecified)	1%
CCc1cccc(CC)c1NC(=S)Nc1ccccc1	i
O=C(Nc1ccc2c(c1)OCCO2)c1cncc(Br)c1	3%
O=C(Nc1cccc(Cl)c1)c1ccc(CSCc2ccccc2)cc1	i
O=C(c1ccccc1)c1cc([N+](=O)[O-])ccc1N1CCCC1	i
CCOC(=O)c1cccc(NC2=C(Cl)C(=O)N(Cc3ccccc3)C2=O)c1	5%
COCCN(Cc1cc2cccc(C)c2[nH]c1=O)C(=O)c1ccccc1F	i
Cc1ccc(-c2cn(S(=O)(=O)c3ccc(Cl)cc3)nc2N)cc1	i
O=C(O)C(Cc1ccccc1)NS(=O)(=O)c1ccc2[nH]c(=O)c(=O)[nH]c2c1 (stereo unspecified)	i
CC(=O)N(C)c1ccc(NC(=O)COc2c(C)cccc2C)cc1	i
CCSc1ccccc1C(=O)NCCc1ccc(S(N)(=O)=O)cc1	i
Cc1cc(Cl)ccc1OCC(=O)N1CCc2ccccc2C1	3%
Cc1c(CCO)c2ccccc2n1Cc1ccccc1	i
COc1ccc(S(=O)(=O)N2CCCCCC2)cc1C(=O)O	i
COc1cccc(COc2cc3oc(=O)c4c(c3cc2Cl)CCCC4)c1	i
CCCCn1c(C)c(C(C)=O)c2cc(O)ccc21	i
CC12CCC(C(=O)Nc3ccc(Br)cn3)(C(=O)C1=O)C2(C)C (stereo unspecified)	i
COc1ccc(OC)c(S(=O)(=O)N2CCc3ccccc3C2)c1	i
COC(=O)c1ccc(COc2ccc(Cl)c(C)c2)o1	i
COc1ccc(N(CC(=O)Nc2cccc([N+](=O)[O-])c2)S(C)(=O)=O)cc1	i
Cc1ccc(OCCn2ccnc2)cc1C	i
COc1ccc2nc(NC(=O)CSc3cccc4cccnc34)sc2c1	i
CN1CCN(C(=O)c2ccc(OCc3ccccc3)cc2)CC1	0%
CCCCOc1ccc(C(=S)N2CCN(C)CC2)cc1OC	i
COc1ccc(S(=O)(=O)N(CC(=O)NC2CCCCCC2)c2ccc(C)cc2)cc1OC	i
N#Cc1c(C(F)(F)F)cc(-c2cccs2)nc1SCC(O)COc1ccc(Cl)cc1 (stereo unspecified)	i
COC(=O)c1cc(C)sc1NC(=S)Nc1c(F)c(F)c(Br)c(F)c1F	u
COC(=O)c1ccccc1NC(=O)CSc1nnc(-c2ccccc2)n1Cc1ccccc1	14%
Cc1ccc(NC(=O)CC2C(=O)NCCN2C(=S)Nc2ccccc2)c(C)c1 (stereo unspecified)	i
Cc1ccc2cccc(OCCCCOc3ccc([N+](=O)[O-])cc3)c2n1	i
Cc1ccc(C)c(N(CC(=O)Nc2ccccc2Br)S(C)(=O)=O)c1	i
CCOC(=O)c1c(NC(=O)CCSc2nnc(C)s2)sc2c1CCC(C)C2 (stereo unspecified)	i
O=C(COc1ccc(F)cc1)NCC1CCCO1 (stereo unspecified)	i
O=C(Cn1cnc2ccccc2c1=O)Nc1cccc(Cl)c1	i
CC1CCN(c2ccc(NC(=O)c3cc(I)ccc3Cl)cc2)CC1	49%
CC(C)c1ccc(S(=O)(=O)Nc2cccc3c([N+](=O)[O-])cccc23)cc1	i
Cc1ccccc1CSCCNC(=O)c1cccc(Cl)c1	i
O=[N+]([O-])c1ccccc1SN(Cc1ccccc1)c1ccccn1	2%
CCC(Sc1nnc2c3ccccc3n(C(C)C)c2n1)C(=O)Nc1ccccc1OC (stereo unspecified)	12%
